E coli growth: inhibitors of Escherichia coli growth; OD600, 23 h; active compounds read low; OD600 absorbance (concentration not given with the values); actives 0.21% (n = 330,000); AID 1053175;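 active means OD600 absorbance below the run mean of sample wells minus 3.6 SD, in any replicate, cut at about 0.56 in these data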;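 further: stock transfer was 300 nL into about 60 µL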
RanGTP-Imp inh: inhibitors of RanGTP-importin-beta interaction, primary screen, biochemical, FRET, CFP-Ran, YFP-importin-beta, homogeneous | cell-free CFP-Ran/YFP-importin-beta FRET ratio | inhibition, % (concentration not given with the values) | actives 1.1% (n = 300,000) | AID 2216;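 active means most replicates above 15%; inconclusive means exactly half above 15%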;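 further: 0% = DMSO wells and 100% = Ran loaded with GDP instead of GTP; wells of about 40 µL received 100 nL stock; the first replicate is given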
HNF4A DNA FP: change in binding of human HNF4 alpha to DNA; P41235; HNF4a-FITC DNA binding, fluorescence polarization, 1 h; activity change, % at 10 µM; actives 0.3% (n = 360,000); in the data active means activity change above about 30%, passing the limit was not always enough;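 further: controls were the assay level and a saturating level of protein; the project sought stronger binding though the title names inhibitors; some compounds called inactive have numbers as strong as hits; positive values seem to mean higher polarization but the record does not say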
Target sequence (P41235 whole entry, looked up): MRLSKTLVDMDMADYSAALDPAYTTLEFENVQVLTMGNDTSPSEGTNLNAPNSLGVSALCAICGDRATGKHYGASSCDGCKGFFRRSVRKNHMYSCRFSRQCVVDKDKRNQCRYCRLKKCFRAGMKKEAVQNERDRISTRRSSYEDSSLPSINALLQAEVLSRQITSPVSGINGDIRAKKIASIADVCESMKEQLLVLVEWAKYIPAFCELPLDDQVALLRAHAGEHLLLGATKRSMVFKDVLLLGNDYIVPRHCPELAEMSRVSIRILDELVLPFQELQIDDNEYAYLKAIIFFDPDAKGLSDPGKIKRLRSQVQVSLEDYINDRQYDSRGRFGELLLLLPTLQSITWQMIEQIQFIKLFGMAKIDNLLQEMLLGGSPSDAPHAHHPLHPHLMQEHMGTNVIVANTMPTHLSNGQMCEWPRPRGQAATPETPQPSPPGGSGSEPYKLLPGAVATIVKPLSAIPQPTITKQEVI
Vif TR-FRET: HIV-1 Vif–A3G interaction blockers – biochemical, TR-FRET, GST-Vif 1-94, biotin-A3G peptide, dose response retest, primary screen (AID 1117319); TR-FRET GST-Vif / biotin-A3G peptide binding; higher % means a stronger effect; test concentration not given here; strong numbers were not always called active; one-dose inhibition, %; IC50 in µM for titrated hits; actives 0.57% (n = 260,000);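 active means above the screen mean plus three standard deviations and confirmed in dose response; inconclusive means results disagree or hit not tested in dose response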;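 further: Vif residues 1-94 fused to GST binding biotinylated APOBEC3G peptide 110-148; 0% = full assay without inhibitor and 100% = GST in place of GST-Vif; retest series ran down from 100 µM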
UCH37 DUB inh: human UCH37 deubiquitinating enzyme inhibition; Q9Y5K5; purified proteasome/UCH37, Ub-AMC cleavage fluorescence; inhibition, % (test concentration not listed); actives 0.33% (n = 330,000); AID 588478;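 active means mean of two replicates above 20%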;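 further: 0% = compound-free wells with enzyme and 100% = wells lacking proteasome; stock transfer was 100 nL into about 20 µL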
Target sequence (Q9Y5K5 whole entry, looked up): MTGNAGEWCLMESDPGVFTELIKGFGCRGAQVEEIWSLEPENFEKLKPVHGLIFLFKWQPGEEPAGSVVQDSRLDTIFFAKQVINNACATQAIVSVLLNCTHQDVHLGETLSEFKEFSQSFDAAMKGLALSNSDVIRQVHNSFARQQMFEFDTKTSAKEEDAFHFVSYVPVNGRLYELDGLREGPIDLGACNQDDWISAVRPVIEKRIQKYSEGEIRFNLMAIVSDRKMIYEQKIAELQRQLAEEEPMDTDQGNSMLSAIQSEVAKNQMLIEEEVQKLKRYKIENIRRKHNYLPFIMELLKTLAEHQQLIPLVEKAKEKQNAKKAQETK
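Reagent: Ub-AMC substrate; assay system: Proteasome-associated human UCH37 deubiquitinase; controls: no-proteasome and no-compound wells; read-out: % inhibition of Ub-AMC cleavage fluorescence; timing: 30 min preincubation with enzyme, 25 min cleavage at room temperature; signal: AMC fluorescence from Ub-AMC cleavage, excitation 355 nm, emission 460 nm; buffer or medium: Tris-HCl pH 7.4 plus ovalbumin, ATP-MgCl2, DTT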
MLL AF4-AF9 inh: MLL-AF4/AF9 protein interaction inhibition; P42568; AlphaScreen, biotin-AF4 peptide binding to FLAG-AF9; inhibition, % at 10 µM; actives 0.47% (n = 350,000);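 active means every replicate reaching a set inhibition limit, whatever the replicate mean, cut at about 25% in these data; inconclusive means mean inhibition reaches that limit but some replicates miss it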;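 further: 0% = plate neutral control median and 100% = total signal loss; the record names both 10 and 1 µM as test concentration; the first replicate is given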
FGF22 binding: FGF22 (human) thermal shift binding; Q9HCT0; recombinant FGF22 thermal shift, SYPRO orange fluorescence; percent of sucrose octasulfate shift, DMSO zero; calls only at 9.99 µM; actives 1.5% (n = 340,000);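 active means melting point raised past a set limit in the mean and every replicate; inconclusive means no clear call; three in four hits are not shown here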
Target sequence (Q9HCT0 whole entry, looked up): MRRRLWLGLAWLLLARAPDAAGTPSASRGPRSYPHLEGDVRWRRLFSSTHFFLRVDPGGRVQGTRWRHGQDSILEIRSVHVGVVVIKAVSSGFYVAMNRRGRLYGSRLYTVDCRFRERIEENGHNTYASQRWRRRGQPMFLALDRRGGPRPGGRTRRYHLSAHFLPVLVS
Numbers without * were called inactive; i = inactive; ? = inconclusive; nt = no result given; & = joins results of further samples.

SMILES	E coli growth	RanGTP-Imp inh	HNF4A DNA FP	Vif TR-FRET	UCH37 DUB inh	MLL AF4-AF9 inh	FGF22 binding
COc1ccc(C(C(=O)NC2CCCCC2)N(C(=O)c2csnn2)C2CC2)cc1 (stereo not given)	0.67	1.9	2.6	nt	3.0	-1.3	i
COc1ccc(-n2c(N)cc(=O)nc2SCC(=O)N2CCN(c3ccccc3)CC2)cc1	0.685	-1.4	6.4	-1.6%	2.8	4.3	i
O=C(COC(=O)/C(=C/c1cccs1)c1cccs1)NCc1ccccc1Cl	0.752	0.0	-1.1	4.0%	5.4	1.9	i
Cc1cccc(NC(=O)CCc2c(C)nn(-c3ccc(N4CCOCC4)nn3)c2C)c1	0.689	-0.9	6.2	nt	3.3	1.7	i
COc1cc(/C=C2\SC(N)=NC2=O)cc(OC)c1	0.678	4.5	3.6	nt	-1.0	1.7	i
COCc1ccc(O)c2ncccc12	0.634	0.2	-4.5	3.4%	2.7	nt	nt
C/C=C/C(=O)OCC(=O)Nc1c(Cl)cccc1Cl	0.678	-0.4	0.1	-7.9%	-0.5	nt	nt
COc1ccc(Br)cc1/C=C/C(=O)NC(=S)Nc1ccc(CN2CCOCC2)cc1	0.727	50.2*	-3.0	nt	4.5	4.7	i

At a glance, part of the list above.
SMILES	E coli growth	RanGTP-Imp inh	HNF4A DNA FP	Vif TR-FRET	UCH37 DUB inh	MLL AF4-AF9 inh	FGF22 binding
COc1ccc(C(C(=O)NC2CCCCC2)N(C(=O)c2csnn2)C2CC2)cc1 (stereo not given)	0.67	1.9	2.6	nt	3.0	-1.3	i
COc1ccc(-n2c(N)cc(=O)nc2SCC(=O)N2CCN(c3ccccc3)CC2)cc1	0.685	-1.4	6.4	-1.6%	2.8	4.3	i
O=C(COC(=O)/C(=C/c1cccs1)c1cccs1)NCc1ccccc1Cl	0.752	0.0	-1.1	4.0%	5.4	1.9	i
Cc1cccc(NC(=O)CCc2c(C)nn(-c3ccc(N4CCOCC4)nn3)c2C)c1	0.689	-0.9	6.2	nt	3.3	1.7	i
COc1cc(/C=C2\SC(N)=NC2=O)cc(OC)c1	0.678	4.5	3.6	nt	-1.0	1.7	i

Remaining list, next part
SMILES	E coli growth	RanGTP-Imp inh	HNF4A DNA FP	Vif TR-FRET	UCH37 DUB inh	MLL AF4-AF9 inh	FGF22 binding
O=C(CSC1=NCCS1)NC(c1ccccc1)c1ccccc1	0.735	1.4	4.7	-9.5%	3.5	-2.9	i
CCC1=C(OC(=O)N(CC)CC)N2C(=O)OC(=NCC3CC3)[C@]2(Cc2ccccc2)[C@H]2C1=CC[C@H]1C(=O)N(c3ccccc3)C(=O)[C@H]12	nt	0.5	2.0	-1.4%	5.3	3.3	i
COc1ccc(S(=O)(=O)N2CCOC2CNC(=O)C(=O)NCc2cccnc2)cc1OC (stereo not given)	0.656	-5.7	-3.6	-7.0%	-2.2	-25.1	i
Cc1cc(NC(=O)CSc2nnnn2-c2ccccc2C)no1	0.698	-0.8	-2.0	3.2%	0.2	-0.3	i
CC(CCc1ccccc1)NC(=O)CSc1nc(N)cc(N)n1 (stereo not given)	0.659	3.1	-0.5	5.6%	3.3	nt	nt
CC1CCCCC1NC(=O)CN1CCC(NC(=O)C(C)(C)C)CC1 (stereo not given)	nt	nt	-2.1	nt	nt	-4.9	i
CCn1c(SCC(=O)c2ccc(Cl)s2)nnc1-c1cccs1	0.637	-4.4	-0.5	2.0%	1.4	nt	nt
Clc1ccc(C2=Nn3c(Cn4nnc5ccccc54)nnc3SC2)cc1	0.723	1.4	0.7	-0.9%	3.3	-0.1	nt
CCc1ccc(S(=O)(=O)NCCc2csc(-c3cccnc3)n2)s1	0.702	-4.9	-0.5	-5.9%	2.8	2.2	i
COc1cccc(CN(C)C(=O)C(Cc2ccccc2)NC(=O)c2ccccc2)c1OC (stereo not given)	0.697	0.6	-0.4	-8.1%	2.9	-6.0	i
COC(=O)c1ccc(CNC(=O)CSc2nc3ccccc3[nH]2)cc1	0.709	-0.7	-2.0	nt	4.2	-0.7	i
COc1cccc(OC)c1-c1nnc(-c2cn(C)c3ccccc23)o1	0.748	4.0	-4.3	-11.4%	-7.6	nt	nt
O=C(CCn1c(=O)oc2ccccc21)NCc1ccc2c(c1)OCO2	0.668	-2.0	-1.9	25.1%	2.4	-11.2	i
COc1ccc(C(=O)NC(C)c2ccc(-n3ccnc3)cc2)c(OC)c1OC (stereo not given)	0.688	-1.0	-1.0	0.9%	6.0	-0.4	i
O=C(O)C1=C[C@@H](c2ccc(Br)cc2)C[C@@H](OCCCCO)O1	nt	0.7	3.2	nt	2.6	-0.5	i
Cc1ccc(S(=O)(=O)N2CCN(S(=O)(=O)N(C)C)CC2)cc1	0.706	3.2	-1.9	-7.7%	4.4	nt	nt
C/C(Cc1ccccc1)=N\NC(=O)CNC(=O)c1ccc2c(c1)OCCO2	nt	-4.2	1.0	-9.6%	nt	-2.1	i
CCOC(=O)C(=O)c1csc(NC(=O)COc2ccc(N(C)S(=O)(=O)c3ccc(F)cc3)cc2)n1	0.661	3.8	-2.1	30.6%	0.8	nt	nt
CN(CCCNC(=O)c1cc2c(Cl)nc3ccccc3c2s1)Cc1ccccc1	0.671	1.3	4.0	-6.3%	5.4	2.1	i
O=C(c1cc(COc2cccc(C(F)(F)F)c2)on1)N1C[C@H]2CC[C@H]1C2	0.705	0.0	0.3	-1.7%	5.5	-2.5	i
Cn1nc(-c2ccccc2)nc1-c1ccccc1	0.575	1.4	0.6	nt	1.9	2.0	i
Cc1cccc(S(=O)(=O)c2c(C)cc(C)nc2Cl)c1	0.688	-2.0	7.9	-4.2%	-0.2	-9.7	i
COCCn1cnc2c(c1=O)c1nc3ccccc3nc1n2/N=C/c1cccc(OC)c1	nt	0.3	3.2	-1.1%	nt	nt	i
COc1ccc(C2N3CC4(C)CN2CC(C)(C3)C4O)cc1 (stereo not given)	0.71	-2.8	1.9	8.2%	0.2	1.8	i
O=C(Oc1cccnc1)c1cc(S(=O)(=O)N2CCOCC2)ccc1Cl	0.683	-1.7	1.9	9.3%	0.6	-58.8	i
CCCn1c(=O)[nH]c(=O)c2c1nc(-c1ccc(OC(F)F)c(OC)c1)n2CCOC	0.753	-0.1	0.5	13.4%	1.1	nt	nt
C[C@H]1Cn2cnc(C(=O)N[C@H](C)c3ccccc3)c2C(=O)N1	nt	nt	-3.5	-0.2%	nt	-0.5	i
Cc1ccc(-c2c(C(=O)NC(C)C)oc(=O)c3ccccc23)cc1	0.673	?	-1.7	20.0%	1.9	0.3	i
Cc1cc2[nH]c(=O)c(=O)[nH]c2cc1S(=O)(=O)Nc1ccccc1F	0.714	3.4	2.0	-3.3%	6.3	-1.8	i
COc1ccc2cc(C3CC(c4ccco4)=NN3S(=O)(=O)c3ccccc3)c(Cl)nc2c1 (stereo not given)	0.732	3.3	0.4	0.1%	-4.8	nt	nt
Cc1cc(=O)[nH]c2nc3ccccc3n12	nt	nt	1.7	-0.1%	nt	0.7	i
CCN(CC)S(=O)(=O)c1ccc(Cl)c(NC(=O)COc2ccc(OC)cc2[N+](=O)[O-])c1	0.736	2.6	5.0	-6.5%	3.8	nt	nt
COCCOC(=O)c1sc(=S)n(CCOC)c1N	0.7	-1.9	-14.8	8.2%	7.0	-10.1	i
COc1ccc(NC(=O)c2sc(N)nc2-c2ccccc2)cc1	0.658	-6.9	-1.4	-1.0%	3.9	1.1	i
c1ccc2c(c1)ncn2CCCCOc1ccc2c(c1)CCC2	0.596	-4.5	-2.6	-0.1%	4.2	nt	nt
CC1Cc2ccccc2N1C(=O)COC(=O)Cc1ccc(F)cc1 (stereo not given)	0.713	nt	1.5	0.5%	3.9	-1.3	i
CCCCNC(=O)OC(C)CNC(=O)Oc1cccc(C)c1 (stereo not given)	0.709	-4.2	3.2	0.9%	0.6	nt	nt
CC/C(=C/c1sc2ccc(C)cc2[n+]1CCCS(=O)(=O)[O-])SC	0.69	-2.9	nt	?	3.7	-6.1	i
COc1ccc(S(=O)(=O)Nc2cccc(F)c2)cc1C	0.628	0.3	1.8	nt	1.1	-1.1	i
CC(=O)Nc1ccc(S(=O)(=O)Nc2nc3ccc(C)cc3s2)cc1	0.729	-5.6	2.5	-1.7%	3.7	nt	nt
COC(=O)[C@@]1(Cc2ccc(F)cc2)[C@H]2c3cc(C(=O)N4CCCC4)n(CCN4CCNC4=O)c3C[C@H]2CN1C(=O)c1ccccc1	nt	nt	1.6	nt	nt	0.5	i
O=C(NCCc1ccc(Cl)cc1)Nc1ccc(Cl)cc1	0.7	3.4	-5.0	14.8%	5.2	-2.4	i
O=C(Nc1ccccc1Br)c1cccc2ccccc12	0.68	1.3	0.0	nt	3.0	0.8	i
Cc1cccc(N=C2NN=C(c3ccc4c(c3)OCCO4)CS2)c1	0.668	-1.6	0.7	-2.4%	2.7	1.4	i
Cc1cc(SCC(=O)OCC(=O)N(C)C2CCS(=O)(=O)C2)c(C)cc1Br (stereo not given)	0.652	4.5	-0.9	nt	2.5	-53.8	i
CCOC(=O)c1ccc(N2C(=O)C(O)=C(C(C)=O)C2c2ccccc2)cc1 (stereo not given)	0.746	0.7	-0.4	-7.5%	2.1	nt	nt
CCOC(=S)N/C(=N\S(=O)(=O)c1ccccc1)c1ccccc1	nt	0.7	0.6	-0.5%	nt	nt	nt
CCNC(=O)c1sc(=S)n(CC)c1N	0.709	-2.1	-0.6	?	2.7	nt	nt
COc1cc(-c2c(C#N)c(N)nc3c2CCCC3)ccc1O	0.72	-2.0	-0.5	4.3%	-2.3	nt	nt
CC(C)CCNC(=O)C1CCN(S(=O)(=O)c2ccc3c(c2)CC(C)N3C(=O)C2CCC2)CC1 (stereo not given)	0.672	7.2	5.2	nt	0.0	-0.2	i
Cc1ccc(C(=O)Nc2cccc(C(F)(F)F)c2)cc1NC(=O)c1csc(-c2ccncc2)n1	0.678	0.3	2.1&1.4	-9.9%&-0.3%	3.1	nt	nt
COc1ccccc1-c1nn(-c2ccccc2)cc1C(=O)N1CCN(C(=O)c2ccco2)CC1	0.606	nt	1.1	-12.2%	2.4	-2.7	i
CN(C)CC/C=C1/c2ccccc2CS(=O)(=O)c2ccccc21	0.672	1.8	3.8	nt	0.9	-0.6	i
COc1cc(/C=N/NC(=O)CN2CCCCC2)ccc1OCc1ccc(Br)cc1	nt	-0.1	3.7	-2.8%	nt	nt	nt
CCOC(=O)c1cc(C(=O)OCC)c(=O)[nH]c1SCc1ccccc1	0.672	?	1.8	2.6%	3.9	3.4	i
Cc1c(C)n(CC(O)CN2CCN(C)CC2)c2ccccc12 (stereo not given)	0.707	3.7	0.8	-1.4%	5.3	1.2	i
CCN1C(=O)c2ccccc2Sc2ccc(C(=O)O)cc21	0.683	2.2	1.3	-3.1%	3.9	-2.7	i
O=C(COC(=O)[C@@H]1CC(O)CN1S(=O)(=O)c1ccc2c(c1)OCCO2)Nc1cc(F)ccc1F (stereo not given in full)	0.672	nt	-3.0	nt	-0.5	-13.3	i
COc1ccc(N2CCN(C(=O)c3ccc(C)c(NC(=O)C4=C(C)OCCS4)c3)CC2)cc1	0.649	4.0	2.0	7.1%	1.0	8.1	i

Compound activity from PubChem.

These rows are one share of the data; count on the stated rates, not on these rows.
